NPYLR7 ag: mosquito NPYLR7 agonism; actives 0.15% (n = 270,000); activation, % at 10 µM; HEK293T NPYLR7/Galpha15, GCaMP6s calcium fluorescence; in the data active means activation above about 40%;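 further: 0% = vehicle and 100% = reference agonist at the receptor; some compounds past the cut are filed as inactive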
NPYLR7 ag max-min: further read-out of NPYLR7 ag, marked with its call; activation, %; measured here: Max-Min RFU normalised activation; some inactives read as strong as hits;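 span of the calcium signal over five minutes; 0% = vehicle and 100% = native peptide agonist; compound fluorescence can raise it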
* marks the source's active call; other numbers are inactive results.

`Cn1cc(CN2CCCC(C(=O)c3cccc(Cl)c3)C2)c(-c2ccccc2)n1` (stereo not drawn) gave NPYLR7 ag 10 and NPYLR7 ag max-min 10.
Screening COC(=O)c1ccc(C(=O)N(CCN(C)C)c2nc3ccc(Br)cc3s2)cc1 returned NPYLR7 ag -4 and NPYLR7 ag max-min -9.
For CC(=O)Nc1ccc(-c2c(-c3cccc(C)c3)nn(-c3ccc(C)cc3C)c2OC(C)=O)cc1 the results were NPYLR7 ag -19 and NPYLR7 ag max-min -10.
CS(=O)(=O)c1ccc(NC(=O)c2ccoc2)cc1F was read as NPYLR7 ag -2 and NPYLR7 ag max-min -3.
`CC(C)CCCC(C)NC(=O)c1cccc(S(=O)(=O)N2CC(C)OC(C)C2)c1` (stereo not drawn) gave NPYLR7 ag 7 and NPYLR7 ag max-min 4.
`COc1cc(OC)c(OC)cc1CNC(=O)c1ccc(F)cc1F` gave NPYLR7 ag 13 and NPYLR7 ag max-min 6.
Screening O=c1c2nnn(Cc3ccc(Cl)cc3)c2ncn1Cc1ccccc1F returned NPYLR7 ag 8 and NPYLR7 ag max-min 7.
Screening Cc1cccc(C)c1OCC(=O)N1CCCC(c2nc3ccccc3s2)C1 (stereo not drawn) returned NPYLR7 ag 1 and NPYLR7 ag max-min 27.
O=C(c1cccs1)N1CCC(c2nc(-c3ccc(F)c(F)c3)no2)CC1 was read as NPYLR7 ag -2 and NPYLR7 ag max-min 0.
Cc1ccnc(SCc2cc(=O)c(OC(=O)/C=C/c3ccccc3)co2)n1 was read as NPYLR7 ag -15 and NPYLR7 ag max-min -9.
For CCOC(=O)CN(C)C(=O)c1cn(Cc2ccc(F)cc2Cl)nn1 the results were NPYLR7 ag 3 and NPYLR7 ag max-min -1.
For CCOC(=O)C1CCN(C(c2cccs2)C2Sc3nc(C)nn3C2=O)CC1 (stereo not drawn) the results were NPYLR7 ag 3 and NPYLR7 ag max-min -1.
For Cc1cc2nc(-c3cccs3)cc(C(=O)NCCC3CCCN3C)c2cc1C (stereo not drawn) the results were NPYLR7 ag 7 and NPYLR7 ag max-min 8.
COc1cc(C(=O)Nc2nc(-c3ccc4c(c3)OCO4)cs2)cc(Cl)c1OC was read as NPYLR7 ag 5 and NPYLR7 ag max-min 11.
Screening CCOC(=O)c1nnn(C(CC)C(=O)Nc2cc(Cl)ccc2C)c1C(=O)OCC (stereo not drawn) returned NPYLR7 ag -5 and NPYLR7 ag max-min -13.
`Cc1ccc2nc(-c3ccccn3)c(Nc3c(C)cccc3C)n2c1` gave NPYLR7 ag -8 and NPYLR7 ag max-min 0.
For CCCC(=O)Nc1cccc(C2SCC(=O)N2c2ccc(C(F)(F)F)cc2)c1 (stereo not drawn) the results were NPYLR7 ag -3 and NPYLR7 ag max-min 3.
`NC1=NN=C(c2ccccc2)CS1` gave NPYLR7 ag 2 and NPYLR7 ag max-min 2.
For CCOC(=O)c1cc(-c2ccc(F)cc2)n(C2CCN(C(=O)c3ccc(Cl)cc3Cl)CC2)n1 the results were NPYLR7 ag 4 and NPYLR7 ag max-min 4.
For CC(C)S(=O)(=O)c1csc(C(=O)N2CCN(Cc3cc(=O)c(OCc4cccc(F)c4)co3)CC2)c1Cl the results were NPYLR7 ag 16 and NPYLR7 ag max-min 7.
For O=C(c1sccc1S(=O)(=O)N1CCCC1)N1CCN(c2ccccn2)CC1 the results were NPYLR7 ag -1 and NPYLR7 ag max-min 1.
CC1CN(C(=O)CC2CSc3nc(C(C)C)cc(=O)n32)CC(C)O1 (stereo not drawn) was read as NPYLR7 ag -4 and NPYLR7 ag max-min -6.
For COc1ccc(Cl)cc1CN(C)Cc1ccn[nH]1 the results were NPYLR7 ag 2 and NPYLR7 ag max-min -1.
Screening CCc1cccc(NC(=O)N(CC(=O)N2CC(=O)N(c3ccc(Cl)cc3)C2)C2CC2)c1 returned NPYLR7 ag 3 and NPYLR7 ag max-min 14.

Of the compounds above, these have fluorine.
CS(=O)(=O)c1ccc(NC(=O)c2ccoc2)cc1F was read as NPYLR7 ag -2 and NPYLR7 ag max-min -3.
`COc1cc(OC)c(OC)cc1CNC(=O)c1ccc(F)cc1F` gave NPYLR7 ag 13 and NPYLR7 ag max-min 6.
Screening O=c1c2nnn(Cc3ccc(Cl)cc3)c2ncn1Cc1ccccc1F returned NPYLR7 ag 8 and NPYLR7 ag max-min 7.
O=C(c1cccs1)N1CCC(c2nc(-c3ccc(F)c(F)c3)no2)CC1 was read as NPYLR7 ag -2 and NPYLR7 ag max-min 0.
For CCOC(=O)CN(C)C(=O)c1cn(Cc2ccc(F)cc2Cl)nn1 the results were NPYLR7 ag 3 and NPYLR7 ag max-min -1.
For CCCC(=O)Nc1cccc(C2SCC(=O)N2c2ccc(C(F)(F)F)cc2)c1 (stereo not drawn) the results were NPYLR7 ag -3 and NPYLR7 ag max-min 3.
For CCOC(=O)c1cc(-c2ccc(F)cc2)n(C2CCN(C(=O)c3ccc(Cl)cc3Cl)CC2)n1 the results were NPYLR7 ag 4 and NPYLR7 ag max-min 4.
For CC(C)S(=O)(=O)c1csc(C(=O)N2CCN(Cc3cc(=O)c(OCc4cccc(F)c4)co3)CC2)c1Cl the results were NPYLR7 ag 16 and NPYLR7 ag max-min 7.

Continuation:
`CCOCCOc1nc(-c2ccc(OC)cc2)n(-c2cccc(NCC(O)Cc3ccccc3)c2)n1` (stereo not drawn) gave NPYLR7 ag -4 and NPYLR7 ag max-min -2.
For O=C1C2=C(Nc3[nH]c(=O)[nH]c(=O)c3C2c2ccc(Cl)cc2)c2ccccc21 (stereo not drawn) the results were NPYLR7 ag 2 and NPYLR7 ag max-min 21.
Screening CCC(=O)N1CCCCC1C(=O)Nc1nc(C)c(-c2ccccc2)s1 (stereo not drawn) returned NPYLR7 ag -1 and NPYLR7 ag max-min -3.
COC(=O)c1ccc2c(c1)C(=O)/C(=C\c1cc(OC)ccc1OC)O2 was read as NPYLR7 ag -3 and NPYLR7 ag max-min 5.
C[n+]1ccn2c3c(c4cc(C5CCCCC5)ccc42)CCCc31 was read as NPYLR7 ag -8 and NPYLR7 ag max-min -16.
For COCCCN(CC(=O)N(Cc1ccccc1)Cc1sccc1C)C(=O)Nc1ccccc1C(F)(F)F the results were NPYLR7 ag -5 and NPYLR7 ag max-min 3.
Screening Fc1ccccc1CSC1=NC2CCCCC2N1 (stereo not drawn) returned NPYLR7 ag -24 and NPYLR7 ag max-min -25.
Screening COC(=O)c1cc(S(=O)(=O)NC2CCCCCC2)cn1C returned NPYLR7 ag 5 and NPYLR7 ag max-min 2.
CC(C)N(CC(=O)Nc1cc(C(C)(C)C)nn1-c1ccccc1Cl)C(=O)Nc1ccc(Cl)c(Cl)c1 was read as NPYLR7 ag -2 and NPYLR7 ag max-min 7.
`O=C(c1cnn2cc(CCO)cnc12)N1CCOC(C(F)(F)F)C1` (stereo not drawn) gave NPYLR7 ag 3 and NPYLR7 ag max-min -9.
`CO[C@H]1CN(C(=O)c2cccc(S(C)(=O)=O)c2)CC[C@H]1N` gave NPYLR7 ag 8 and NPYLR7 ag max-min 5.
For O=C(CCS(=O)(=O)c1ccccc1)N(Cc1cccnc1)c1nc2c(Cl)cccc2s1 the results were NPYLR7 ag -10 and NPYLR7 ag max-min -2.
For CC1=C(C(=O)OC2CCCC2)C(c2ccc(Cl)cc2)NC(=O)N1C (stereo not drawn) the results were NPYLR7 ag -1 and NPYLR7 ag max-min -6.
For Cn1cnc2cc(C(=O)Nc3ccn(CCS(C)(=O)=O)n3)ccc21 the results were NPYLR7 ag 2 and NPYLR7 ag max-min 7.
`COCCCNC(=O)CCc1cc2c(n1-c1ccc3ncsc3c1)-c1ccc(OC)cc1CC2` gave NPYLR7 ag 3 and NPYLR7 ag max-min 4.
For COc1ccc(C(=O)C=C2C(=O)Nc3ccccc32)cc1 the results were NPYLR7 ag -10 and NPYLR7 ag max-min -12.
`O=C(O)c1ccc(-c2ncnc3[nH]ccc23)s1` gave NPYLR7 ag 34 and NPYLR7 ag max-min 21.
`Cc1cc(NC(=O)c2ccco2)sc1C(=O)N1CCc2[nH]c3ccccc3c2C1` gave NPYLR7 ag 7 and NPYLR7 ag max-min 9.
Screening COc1ccc(NC(=O)c2cc3c(=O)n(C)c(=O)n(C)c3n2Cc2ccccc2)cc1 returned NPYLR7 ag 2 and NPYLR7 ag max-min 0.
Screening Cc1ccc(-n2ncc3c(C)nnc(SCC(=O)NCc4ccco4)c32)cc1C returned NPYLR7 ag -11 and NPYLR7 ag max-min -17.
For COc1cn(CC(=O)Nc2ccc(C(C)=O)cc2)c(CSc2ncccn2)cc1=O the results were NPYLR7 ag -7 and NPYLR7 ag max-min -12.
`O=C(O)CSc1cc(Cl)ccc1Cl` gave NPYLR7 ag -2 and NPYLR7 ag max-min -3.
CCCCSc1nc2c(c(=O)[nH]1)C(c1ccc(C)cc1)C(C(=O)OC)C(C)=N2 (stereo not drawn) was read as NPYLR7 ag -6 and NPYLR7 ag max-min -11.
`COCCNC(=O)C1(C)CCCN(Cc2ccc(-c3ccccc3)o2)C1` (stereo not drawn) gave NPYLR7 ag 1 and NPYLR7 ag max-min 1.
`c1cnc2c(-c3ccc(NC4CC4)nn3)cccc2c1` gave NPYLR7 ag 2 and NPYLR7 ag max-min 1.
Screening CC1CCN(C(=O)CN2CCN(c3ccccc3O)CC2)c2ccccc2S1 (stereo not drawn) returned NPYLR7 ag 1 and NPYLR7 ag max-min 7.
For O=C1C2CC=CCC2C(=O)N1CNc1ccccc1Cl (stereo not drawn) the results were NPYLR7 ag 1 and NPYLR7 ag max-min 4.
`O=C(Cn1nc2c(c1NC(=O)CC1CCCC1)CSC2)NCc1ccccc1` gave NPYLR7 ag -1 and NPYLR7 ag max-min 4.
O=C(c1ccc([N+](=O)[O-])cc1)N1CCCC(OCc2cccc(C(F)(F)F)c2)C1 (stereo not drawn) was read as NPYLR7 ag -4 and NPYLR7 ag max-min 2.
For CC(C)CC(=O)N(C)CCN1C(=O)CSC1c1ccc(C(F)(F)F)cc1 (stereo not drawn) the results were NPYLR7 ag -6 and NPYLR7 ag max-min -3.
For CC(C)(C)CN1CCCC2(CCN(C(=O)c3ccc4n[nH]nc4c3)C2)C1=O (stereo not drawn) the results were NPYLR7 ag 0 and NPYLR7 ag max-min -6.
Screening CC1CCCCC1NC(=O)c1cccn2c(=O)c3c4c(sc3nc12)CCCC4 (stereo not drawn) returned NPYLR7 ag 11 and NPYLR7 ag max-min 3.
`Nc1cccc2c1CN(C1CCC(=O)NC1=O)C2=O` (stereo not drawn) gave NPYLR7 ag -15 and NPYLR7 ag max-min -28.
`CCN(CC)S(=O)(=O)c1cccc(C(=O)Nc2nnc(C(C)C)s2)c1` gave NPYLR7 ag -6 and NPYLR7 ag max-min -8.
CC(CC(=O)Nc1ccc2c(c1)OCO2)n1ccnc1 (stereo not drawn) was read as NPYLR7 ag 2 and NPYLR7 ag max-min 0.
CCOC(=O)c1nc2ccccc2nc1N1CCN(C(=O)C(Cl)(Cl)Cl)CC1 was read as NPYLR7 ag 8 and NPYLR7 ag max-min -1.
Cn1c(=O)c2c(nc3sccn32)n(C)c1=O was read as NPYLR7 ag 0 and NPYLR7 ag max-min 7.
For S=c1[nH]nc(Cc2ccccc2)n1Cc1ccco1 the results were NPYLR7 ag 0 and NPYLR7 ag max-min -1.
O=C(CN1Cc2ccc(N3CCOCC3)nc2C1=O)NC1CCC(O)CC1 (stereo not drawn) was read as NPYLR7 ag 4 and NPYLR7 ag max-min 2.
Cc1ccc(NC(=O)CC(=O)NC2CCCN(C(=O)C3CC3)C2)c(C)c1 (stereo not drawn) was read as NPYLR7 ag 0 and NPYLR7 ag max-min 1.
CC(C)N(CC(N)=O)C(=O)c1sc2cc(F)ccc2c1Cl was read as NPYLR7 ag 3 and NPYLR7 ag max-min 2.
Screening CCOC(=O)c1c(C)nn(-c2ccc(C(=O)NCc3ccc4c(c3)OCO4)cc2)c1C returned NPYLR7 ag 4 and NPYLR7 ag max-min 2.
For CC1CCC2(CC1)NC(=O)N(CN1CCN(S(=O)(=O)c3cccs3)CC1)C2=O (stereo not drawn) the results were NPYLR7 ag 9 and NPYLR7 ag max-min 13.
O=C(O)CN1C(=O)/C(=C\c2ccc(OC(=O)c3cc([N+](=O)[O-])ccc3[N+](=O)[O-])cc2)SC1=S was read as NPYLR7 ag 53 and NPYLR7 ag max-min 39.
For Cc1cc(C)n(CCN(C(=O)c2ccc(F)cc2)c2nc3ccccc3s2)n1 the results were NPYLR7 ag -16 and NPYLR7 ag max-min -23.
Cc1ncsc1CCC(=O)N1CCC(C(=O)Nc2cccc(-c3ccco3)c2)CC1 was read as NPYLR7 ag 1 and NPYLR7 ag max-min 0.
CC1(C)Cc2c(cnn2-c2ccccc2)C(NC(=O)CCCn2cncn2)C1 (stereo not drawn) was read as NPYLR7 ag 2 and NPYLR7 ag max-min -3.
For CN1CCC(CN(CCc2ccccc2)C(=O)CCC(F)(F)F)CC1 the results were NPYLR7 ag 12 and NPYLR7 ag max-min -7.
CC(=O)N1CCC(N(C)Cc2cc(-c3cccnc3)no2)CC1 was read as NPYLR7 ag 0 and NPYLR7 ag max-min -3.

A portion of the library; the hit share may differ from the screen's.
